Menin MLL FP FL = qHTS Assay for Inhibitors Targeting the Menin-MLL Interaction in MLL Related Leukemias: Competition With Fluorescein Labeled MLL-derived Peptide | Fluorescence polarization, fluorescein-MLL peptide displacement from menin | FP activity change, % at 61.4 µM | 290,000 tested, under 10 active | AID 1766, 2009; inconclusive = falling polarisation curve, or a change in total fluorescence; inactive = total fluorescence flat and polarisation flat or rising; no compound was filed as active; the % refers to the polarisation; negative = inhibition;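 further: % of control where 0% means no effect; inhibitors lower the polarisation; unlabelled MLL peptide was the positive control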
TRPV1 potentiator = HTS Assay for Compounds that Act as Potentiators of the Vanilloid Receptor 1 | Transient receptor potential cation channel subfamily V member 1 (Homo sapiens), Q8NER1 | TRPV1-expressing cells, Fluo-8 calcium influx, capsaicin EC20 potentiation; host cell line not named in the record; control for the full effect not named in the record | potentiation, % at 8.33 µM | 0.02% of 320,000 active | AID 540277, 2011; active means potentiation above 80%; inconclusive means 30% to 80%; inactive means below 30%; further: 0% is about no effect
Target sequence (Q8NER1 whole entry, looked up): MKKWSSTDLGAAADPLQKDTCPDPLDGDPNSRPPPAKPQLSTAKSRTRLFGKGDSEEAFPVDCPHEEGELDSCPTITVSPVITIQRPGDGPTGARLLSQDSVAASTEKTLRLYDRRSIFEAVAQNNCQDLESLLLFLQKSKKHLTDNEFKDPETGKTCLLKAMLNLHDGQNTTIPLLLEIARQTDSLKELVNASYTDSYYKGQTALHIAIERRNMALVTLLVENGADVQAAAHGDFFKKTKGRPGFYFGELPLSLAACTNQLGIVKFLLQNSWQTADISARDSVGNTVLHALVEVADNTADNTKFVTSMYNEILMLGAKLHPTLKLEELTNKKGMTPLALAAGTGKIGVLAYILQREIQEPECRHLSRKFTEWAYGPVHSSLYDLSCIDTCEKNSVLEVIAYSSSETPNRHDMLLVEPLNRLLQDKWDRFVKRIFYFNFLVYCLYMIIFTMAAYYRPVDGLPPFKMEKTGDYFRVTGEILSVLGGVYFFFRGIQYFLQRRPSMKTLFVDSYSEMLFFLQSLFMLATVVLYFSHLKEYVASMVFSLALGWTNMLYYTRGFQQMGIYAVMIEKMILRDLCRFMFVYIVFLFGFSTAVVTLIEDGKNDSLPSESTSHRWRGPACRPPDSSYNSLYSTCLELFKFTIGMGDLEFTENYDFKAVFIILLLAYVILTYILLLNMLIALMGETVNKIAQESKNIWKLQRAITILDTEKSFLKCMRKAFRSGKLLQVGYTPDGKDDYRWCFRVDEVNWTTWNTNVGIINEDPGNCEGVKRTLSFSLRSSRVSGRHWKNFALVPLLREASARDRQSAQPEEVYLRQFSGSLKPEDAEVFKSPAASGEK
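TRPV1-expressing cells were cultured overnight at 35.5C and loaded with Fluo-8 calcium dye for 40 to 90 min at room temperature. After a 10 s baseline, compound was added and calcium influx was read kinetically for 3 min (ex 480/em 520 nm).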
TRPML1 inh = qHTS for Inhibitors of the Human Mucolipin Transient Receptor Potential 1 (TRPML1). Mucolipin-1 (Homo sapiens), Q9GZU1. TRPML1-inducible cells, Ca2+ dye fluorescence, FDSS; active compounds read low; inhibition of EC80 agonist-evoked calcium signal. activity change, negative = inhibition, % (no concentration beside the values). 0.02% of 390,000 active. AID 624415, 2012; in the data active means activity change below about -50%; inconclusive means about -30% to -50%; inactive means above about -30%;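 further: stimulus is agonist 54-4 at its EC80 concentration; on the % scale 0 is the no-effect control and ±100 the full control effect; compound concentration not given in the record; the text of the record puts the active cut at -80%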
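Tet-induced TRPML1-DL cells loaded with Ca8 no-wash calcium dye were read kinetically on FDSS. Compound addition was followed by EC80 agonist 54-4 (4 uM final); inhibition was read over 110 s.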
gsp ag = qHTS for Agonist of gsp, the Etiologic Mutation Responsible for Fibrous Dysplasia/McCune-Albright Syndrome: qHTS; gsp mutant cells, cAMP HTRF, 30 min; control for the full effect not named in the record; Potency, µM (titrated, usually from 76.9 µM), for the others: top-dose activation (cAMP increase), actives largely listed as activators; 0.13% of 340,000 active; AID 624287, 2012; active = well fitted activation curve with a large enough effect; inconclusive = small, poorly fitted or top-dose-only effect, or another doubt; inactive = no such curve, though single readings can be large or run the other way; cell line not stated here;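 further: phosphodiesterase inhibitor Ro 20-1724 added with compounds to block cAMP breakdown; potency means the concentration at half of the fitted maximal effect; nearly all actives have a fitted effect of over 60% in size; about a fifth of the inactives were tested at one dose only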
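Cells in DMEM/10% FBS with G418 were pretreated with compounds in DMSO plus […] (300 uM stock) for 30 min at 37C. cAMP was measured by HTRF (cAMP-d2 plus anti-cAMP antibody-K) after 30 min at room temperature.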
ClpP mod = qHTS Assay for Activators of ClpP. ATP-dependent Clp protease proteolytic subunit (Bacillus subtilis (strain 168)), P80244. purified B. subtilis ClpP, FRET peptide cleavage, 20 min. Potency, µM (highest dose often 57.5 µM), for the others: at the top dose activity change, negative = active. 1.9% of 340,000 active; active = well fitted falling curve with a large enough effect; inconclusive = small, poorly fitted or top-dose-only effect; inactive = no such curve, though single readings can be large or run the other way; further: potency means the concentration at half of the fitted maximal effect; the source files actives as falling curves though it sought activators and does not explain the sign; nearly all actives have a fitted effect of over 65% in size; many hits overshoot -100%
Target sequence (P80244 whole entry, looked up): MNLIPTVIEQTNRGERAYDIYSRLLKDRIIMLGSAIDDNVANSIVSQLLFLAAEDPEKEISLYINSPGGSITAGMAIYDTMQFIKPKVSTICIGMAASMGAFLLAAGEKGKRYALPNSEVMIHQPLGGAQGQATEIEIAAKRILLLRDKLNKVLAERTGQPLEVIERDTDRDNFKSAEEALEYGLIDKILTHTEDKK
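Purified B. subtilis ClpP, 10 microg/mL final in Tris/HCl pH8 with KCl, BSA, glycerol and Tween-20, cleaved an Abz/nitrotyrosine-quenched decapeptide. Fluorescence (ex 320, em 430) was read at 0 and 20 min at room temperature. Delta was normalized to 5.8 microM ADEP and DMSO/no-enzyme controls.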
Sfp PPTase inh = qHTS Assay for Inhibitors of Bacillus subtilis Sfp phosphopantetheinyl transferase (PPTase); 4'-phosphopantetheinyl transferase ffp (Bacillus subtilis), Q9F4F7; Biochemical Sfp PPTase activity, qHTS; Potency, µM, for inactives: max response, negative = inhibition, usual class: inhibitors; 3.5% of 310,000 active; active means well fitted inhibition curve with a large enough effect; inconclusive means small, poorly fitted or top-dose-only effect, or another doubt; inactive means no such curve, though single readings can be large or run the other way;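 further: the enzyme is Sfp with the accession as filed and its product quenches rhodamine fluorescence; potency means the concentration at half of the fitted maximal effect; 0% = enzyme reaction without inhibitor and -100% = no enzyme wells; top concentration of the series not given in the record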
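Step 1, compound plus 15 nM Sfp-PPTase, 15 min, room temperature. Step 2, add rhodamine-CoA (5 uM) and BHQ-2-YbbR (12.5 uM). Step 3, read 525/598 nm fluorescence at 0 and 30 min.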
gsp antag = qHTS for Antagonists of gsp, the Etiologic Mutation Responsible for Fibrous Dysplasia/McCune-Albright Syndrome: qHTS | gsp-mutant cells, cAMP HTRF, 30 min; control for the full effect not named in the record | AID 624288, 2012 | Potency, µM (series often up to 76.9 µM), for the others: at the highest dose activity change, negative = inhibition, usual class: inhibitors | 0.4% of 340,000 active; active = falling curve of any shape with a large fitted effect; inconclusive = falling curve, mostly with a smaller effect; inactive = flat or rising curve; cell line not stated here;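 further: intracellular cAMP measured with PDE inhibitor Ro 20-1724 present during compound exposure; potency means the concentration at half of the fitted maximal effect; on the % scale 0 is the no-effect control and ±100 the full control effect; nearly all actives have a fitted effect of over 65% in size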
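Cells, 2000/well, grown 16–24 h in DMEM 10% FBS with 0.5 mg/ml G418, then compounds plus […] (300 uM addition stock), 30 min at 37C. cAMP read by HTRF (cAMP-d2 and anti-cAMP antibody-K in lysis buffer) after 30 min RT.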
* hit, by the source's call; ? = inconclusive; / = not tested or not shown; [ ] = another dose, or the depositor's remark.

SMILES	Menin MLL FP FL	TRPV1 potentiator	TRPML1 inh	gsp ag	ClpP mod	Sfp PPTase inh	gsp antag
C[C@]12CC[C@H](O)CC1=CCC1C2CC[C@@]2(C)C1CC[C@@H]2NC(=O)[C@@H](N)Cc1ccccc1 (stereo partly drawn)	/	/	3	-5%[15.4 µM]	0.9%	/	-10%
CC(=O)c1ccc(S(=O)(=O)N2CCn3cccc3C2C)cc1 (stereo not drawn)	/	-1	-10	-1%	-3.9%	/	0%
O=c1[nH]nc(Cc2ccc(Cl)cc2Cl)c2ccccc12	2.8	0	-6	20%	-1.6%	-9%	-3%
COc1ccc(/C(C)=N/NC(=O)CNC(=O)c2cccnc2)c(OC)c1	8.0	-1	-2	-15%	0.2%	4%	6%
COc1cc(NC(=O)CSCc2cnn(-c3ccccc3)c2-n2cccc2)cc(OC)c1	-0.2	9	17	-25%	-0.7%	3%	?
CN1CCN(c2nc(-c3cccc([N+](=O)[O-])c3)nc3ccccc23)CC1	-7.8	3	-3	?	/	5%	-2%
CCOC(=O)C1=CN(Cc2ccco2)S(=O)(=O)N(CC)C1c1cccc(OC)c1 (stereo not drawn)	/	/	16	/	-2.9%	/	-2%
Cc1cc(=O)oc2cc(OCC(=O)NC3(C#N)CCCCC3)c(Cl)cc12	/	-1	-4	8%[15.4 µM]	/	/	-6%
O=C(O)CCCCCN1C(=O)/C(=C/c2ccncc2)SC1=S	0.6	2	36	-5%	1.2%	-14%	?
Cc1csc2c(N3CCN(C(=S)Nc4ccc(F)cc4F)CC3)ncnc12	4.6	-11	-4	-6%[15.4 µM]	?	-11%	-23%
O=C1C=C(c2ccc3c(c2)OCCO3)C[C@@H](c2ccc(F)cc2)C1	/	-15	37	?	-11%	/	-18%
CCN(Cc1ccncc1)Cc1nc(-c2ccc(C(=O)OC)cc2)no1	1.5	-3	-11	9%	/	7%	-10%
CCCN1C(=O)c2cc(C(=O)NCc3cccs3)ccc2C1O (stereo not drawn)	-1.2	-1	/	/	/	26%	/
COc1cccc(NC(=O)N2CCCC2C(=O)Nc2cc(C)ccc2OC)c1 (stereo not drawn)	-0.7	0	-13	-2%[15.4 µM]	/	14%	2%
Cc1cccc(C)c1NC(=O)COc1ccc2c(C)c(Cc3ccccc3)c(=O)oc2c1C	0.5	13	0	-7%	?	9%	-1%
CNC(=S)NNC(=O)c1cccs1	-0.2	7	4	-5%[15.4 µM]	/	4%	15%
COc1ccccc1-c1noc2c1C(=O)N(C(=O)OC(C)(C)C)CC2	/	/	-8	-37%	0.7%	/	/
COc1ccc(NS(=O)(=O)c2cc(C(=O)Nc3ccccc3C(=O)O)ccc2C)cc1	4.5	-8	9	12%	-2.0%	14%	-8%
COc1ccc2c(c1)c(-c1csc(N)n1)c(C)n2C	1.5	-16	-8	-23%	-18%	-16%	7%
CCOC(=O)C1CCCN(CCC(=O)Nc2cc(C)ccc2C)C1 (stereo not drawn)	0.4	4	?	-73%[inhibitor]	2.1%	19%	9%
CCN(CC)c1ccc(S(=O)(=O)N2CCOCC2)cc1NC(=O)COC(=O)/C=C/c1ccccc1	/	/	-6	20%	0.1%	/	-8%
O=C(Nc1cccnc1)c1cnn2cccnc12	5.7	-4	-14	-2%	-1.4%	21%	5%
Cc1cc(C)n2nc(C(=O)OCC(=O)c3ccccc3Cl)nc2n1	/	-8	7	-5%	-16%	/	8%
O=P(COCCOCCOCP(=O)(c1ccccc1)c1ccccc1)(c1ccccc1)c1ccccc1	0.4	5	-4	24%	/	12%	6%
O=C(Nc1ccccc1Cl)Nc1ccnn1C1CCN(C(=O)CCN2CCCO2)CC1	-0.9	-4	13	-26%	2.0%	19%	15%

(further entries)
SMILES	Menin MLL FP FL	TRPV1 potentiator	TRPML1 inh	gsp ag	ClpP mod	Sfp PPTase inh	gsp antag
Cn1c(SCc2ccccc2Cl)nc2c1c(=O)[nH]c(=O)n2C	-2.5	22	-3	-4%	/	0%	1%
COc1ccccc1C(C)NC(=O)c1ccc(C)o1 (stereo not drawn)	-1.8	-5	28	1%	?	11%	-1%
COc1ccc(NC(=O)CCNC(=O)c2ccccc2Cl)cc1S(=O)(=O)N1CCCCC1	/	/	33	-21%	0.2%	/	/
CCN1CCN(c2ccc(Nc3ccnc4ccccc34)cc2)CC1	/	1	40	-7%	-1.3%	/	-1%
CN(C(=O)CN1C(=O)NC2(CCc3ccccc32)C1=O)C1CCCCC1 (stereo not drawn)	/	/	-12	-7%[15.4 µM]	-5.5%	/	10%
C[C@H](O)[C@@H]1C(=O)N2CCc3ccc(N4CCN(C)CC4)cc3[C@@H]2C[C@@H]1N(C)C(=O)Nc1cc(Cl)cc(Cl)c1	/	/	3	/	-1.6%	/	-3%
N/N=C(\Cc1cscn1)c1ccc(O)cc1O	?	3	5	-2%[15.4 µM]	/	-24%	5%
CC(C)=C1C2CC2C2C(C(=O)O)C12 (stereo not drawn)	-0.2	-3	15	18%	-0.6%	19%	5%
COc1ccc(NC(=S)NC2CC3CCC2C3)c(OC)c1 (stereo not drawn)	-4.7	-4	-8	-43%[inhibitor][15.4 µM]	/	8%	4%
Cc1nn(Cc2ccc([N+](=O)[O-])cc2)c(=O)n1-c1cccc(Cl)c1	-1.4	-27	-2	-12%[15.4 µM]	/	-7%	10%
CC(CCc1ccco1)NC(=O)Cn1ncc2c(=O)oc3ccccc3c21 (stereo not drawn)	1.1	3	4	-3%	-0.5%	6%	9%
O=C1CC(N(CCc2ccccc2)C(=S)Nc2ccccc2)C(=O)N1c1ccc(F)cc1 (stereo not drawn)	0.9	5	-10	-16%	-1.9%	-4%	-14%
O=C(CCN1C(=O)C2CC=CCC2C1=O)OCC(=O)c1ccc(F)cc1 (stereo not drawn)	/	/	0	-6%	1.0%	/	-2%
Cc1ccc(S(=O)(=O)n2nc(OC(=O)c3ccccc3F)cc2N)cc1	3.3	1	-20	-2%[15.4 µM]	-3.9%	-27%	15%
CCCCN(C(=O)CSCC(=O)Nc1ccc(OC)cc1)c1c(N)n(CC(C)C)c(=O)[nH]c1=O	/	/	0	-11%	-4.3%	/	1%
COC(=O)c1nnc(-c2ccccc2)c(-c2ccccc2)n1	0.8	2	0	-13%	0.4%	-16%	-14%
Cc1ccc(CN2CCC(n3nccc3NC(=O)C3CCOC3)CC2)cc1 (stereo not drawn)	/	6	9	1%	1.5%	28%	-1%
COC(=O)N/N=C/c1ccccc1	-4.3	-2	5	?	0.2%	16%	0%
CC(C)(C)c1ccc(NC(=O)Nc2ccc3ccccc3n2)cc1	-0.1	3	10	-16%	-1.9%	26%	4%
CCC(=O)N1CCc2cc(Br)cc(S(=O)(=O)CCC(=O)N(C)c3cccc(C)c3)c21	/	-4	19	/	0.0%	/	/
CC(C)CCNC(=O)CN(CCCN1CCOCC1)C(=O)Cn1nnc(-c2ccc(F)cc2)n1	3.3	-5	-13	?	-0.7%	12%	-2%
Cc1c(C)n(CCc2ccccc2)c2ncnc(NCCCN(C)C)c12	-8.0	-8	2	-2%	/	-8%	8%
CCOC(=O)C1CCN(C(=O)COC(=O)c2ccc3c(c2)C(=O)N(c2ccc(OCC)cc2)C3=O)CC1	-1.9	6	2	21%	2.7%	14%	?
CCn1cc(S(=O)(=O)CC(=O)N2CCc3ccccc32)c2ccccc21	-0.1	-14	-2	15%	1.1%	0%	-8%
COC(=O)[C@@H](NC(=O)NC1CCCc2ccccc21)C(C)C (stereo partly drawn)	1.9	1	-2	10%	-0.4%	11%	4%

A different layout for 5 compounds above.
Every second line gives: Menin MLL FP FL, TRPV1 potentiator, TRPML1 inh, gsp ag, ClpP mod, Sfp PPTase inh, gsp antag
- CC(C)(C)c1ccc(NC(=O)Nc2ccc3ccccc3n2)cc1
    -0.1, 3, 10, -16%, -1.9%, 26%, 4%
- CCn1cc(S(=O)(=O)CC(=O)N2CCc3ccccc32)c2ccccc21
    -0.1, -14, -2, 15%, 1.1%, 0%, -8%
- CCC(=O)N1CCc2cc(Br)cc(S(=O)(=O)CCC(=O)N(C)c3cccc(C)c3)c21
    /, -4, 19, /, 0.0%, /, /
- CC(CCc1ccco1)NC(=O)Cn1ncc2c(=O)oc3ccccc3c21 (stereo not drawn)
    1.1, 3, 4, -3%, -0.5%, 6%, 9%
- COc1ccc(NC(=S)NC2CC3CCC2C3)c(OC)c1 (stereo not drawn)
    -4.7, -4, -8, -43%[inhibitor][15.4 µM], /, 8%, 4%

(listing goes on)
SMILES	Menin MLL FP FL	TRPV1 potentiator	TRPML1 inh	gsp ag	ClpP mod	Sfp PPTase inh	gsp antag
CC(C)(C)OC(=O)C[C@H]1C/C=C\C[C@@H](CC(=O)N(CCO)Cc2ccccc2)C(=O)NC[C@H](c2ccccc2)OC1=O	/	/	7	/	1.2%	/	-12%
COC(=O)c1c(NC(=O)CN2CCN(C(=O)c3ccco3)CC2)c2c(C)cccc2n1C	-4.1	-23	-8	11%	-3.5%	20µM*	-2%
CCOC(=O)C(=CN(CCc1ccccc1)CC(=O)OC)C(=O)OCC	5.3	4	19	/	-0.4%	8%	-6%
C[C@]1(C(=O)O)Cc2oncc2C[C@@H]1C(=O)O	2.1	7	-6	0%[15.4 µM]	-0.3%	10%	5%
Cc1ccc(NC(=O)NNC(=O)c2sccc2-n2cccc2)cc1	0.1	6	10	-12%	/	2%	-5%
COc1cccc(/C=N/NC(=O)c2csc(-n3nc(C)cc3C(F)(F)F)n2)c1	-0.9	3	-7	-34%[inhibitor]	-8.7%	14%	10%
O=C1NC(=O)C2(COC(c3cccnc3)OC2)S1 (stereo not drawn)	4.9	1	-5	?	0.2%	-19%	-5%

High-throughput results (PubChem BioAssay)
